Compound activity deposited in PubChem by National Center for Advancing Translational Sciences (NCATS).
Marburg entry inh = blocks Marburg virus binding to or entry into cells. Marburg virus pseudotyped entry inhibition, cell reporter; control for the full effect not named in the record; about a third of the inactives were read at about 46 µM. Potency, µM (titrated, usually from 37.8 µM), without a hit: top-dose activity change, negative = inhibition, most hits filed as inhibitors. 1.8% of 300,000 active. AID 540276; active = well fitted inhibition curve with a large enough effect; inconclusive = small, poorly fitted or top-dose-only effect, or effect the other way; inactive = flat fitted curve, though single readings scatter; tested in HEK293 cells; about a fifth of its hits are not listed in these tables; also: % is scaled to controls: 0 for no effect and ±100 for the full control effect; luciferase read-out
StopGo reporter = FMDV 2A StopGo reporter, luciferase signal. Potency, µM (doses to about 57.9 µM), inactives show at the top dose signal change, negative = less light. 1.2% of 410,000 active. human cells with a luciferase reporter of 2A StopGo recoding; control for the full effect not named in the record; active = well fitted falling curve with a large enough effect; inconclusive = small, poorly fitted or top-dose-only effect; inactive = no such curve, though single readings can be large or run the other way; tested in HEK293T cells; also: % is scaled to controls: 0 for no effect and ±100 for the full control effect; nearly all actives have a fitted effect of over 45% in size; luciferase light after 4 h
Cruzain inh Det = blocks cruzain activity in presence of Triton detergent. P25779. purified cruzain, Z-FR-AMC fluorescence, 0.01% Triton. Potency, µM, for inactives: max response, negative = inhibition, usual class: inhibitors. 0.43% of 200,000 active; active = well fitted curve in the direction sought with a large enough effect; inconclusive = small, poorly fitted or top-dose-only effect, or another doubt; inactive = no such curve, though single readings can be large; an effect the other way counts as inactive or inconclusive;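 also: plate controls were neutral wells for no effect and buffer without enzyme for full effect; nearly all actives have a fitted effect of over 40% in size; top concentration of the series not given in the record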
Target sequence (P25779 123-467 limits assumed): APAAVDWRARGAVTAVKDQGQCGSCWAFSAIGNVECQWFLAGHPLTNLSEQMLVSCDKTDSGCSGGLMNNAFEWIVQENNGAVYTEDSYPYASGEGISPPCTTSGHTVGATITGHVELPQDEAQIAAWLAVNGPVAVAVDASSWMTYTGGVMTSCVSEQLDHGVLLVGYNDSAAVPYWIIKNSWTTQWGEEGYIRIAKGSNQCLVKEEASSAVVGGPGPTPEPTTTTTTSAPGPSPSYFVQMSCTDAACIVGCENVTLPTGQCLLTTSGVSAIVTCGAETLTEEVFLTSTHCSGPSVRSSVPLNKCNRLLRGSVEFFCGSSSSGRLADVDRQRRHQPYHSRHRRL
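Z-FR-AMC hydrolysis (2 uM substrate) by cruzain (1.5 nM) monitored kinetically at ex 360/em 450 nm after 15 min room-temperature compound exposure; 0.01% Triton X-100, pH 5.5, 5 mM DTT.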
SARS PLpro yeast = inhibitors of SARS-CoV papain-like protease in yeast. Potency, µM (titrated, usually from 32.9 µM), for the others: at the highest dose activity, positive = growth rescue. 0.19% of 330,000 active. S. cerevisiae expressing SARS-CoV PLpro, growth rescue; control for the full effect not named in the record; also: 0% is about no effect; nearly all actives have a fitted effect of over 55% in size; growth read by luminescence after 48 h
Cruzain inh noDet = cruzain (T. cruzi) inhibition without detergent. P25779. purified cruzain, Z-FR-AMC fluorescence, no detergent. Potency, µM, for the others: max response, negative = inhibition, hits mostly inhibitors. 2.3% of 200,000 active; active = well fitted curve in the direction sought with a large enough effect; inconclusive = small, poorly fitted or top-dose-only effect, or another doubt; inactive = no such curve, though single readings can be large; an effect the other way counts as inactive or inconclusive;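 also: plate controls were enzyme without inhibitor for no effect and buffer without enzyme for full effect; nearly all actives have a fitted effect of over 40% in size; top concentration of the series not given in the record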
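Detergent-free condition (0.00005% Triton X-100) in acetate buffer pH 5.5 with DTT. 1.5 nM enzyme and compound were pre-mixed 15 min, then 2 uM Z-FR-AMC substrate added; reaction progress from fluorescence change between first and third reads (60 s).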
RE007 growth inh = less growth of the S. pombe RE007 Vpr strain. S. pombe RE007 Vpr strain, BacTiter-Glo ATP luminescence, 24 h; control for the full effect not named in the record. Potency, µM (top dose mostly 92.2 µM), inactives show at the highest dose activity change, negative = less growth. 0.21% of 360,000 active. AID 651644; active = well fitted falling curve with a large enough effect; inconclusive = small, poorly fitted or top-dose-only effect; inactive = no such curve, though single readings can be large or run the other way;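 also: % is scaled to controls: 0 for no effect and ±100 for the full control effect; nearly all actives have a fitted effect of over 50% in size; the assay follows cell death caused by Vpr and the record does not say whether a fall means rescue or toxicity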
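Fission yeast strain RE007, carrying one chromosomally integrated HIV-1 vpr copy, was seeded at OD 0.01 in PMG+AL medium with 23 nL pinned compound. After 24 h at 30 °C and 99% humidity, viability was read by BacTiter-Glo luminescence.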
NS1 inh = inhibitors of influenza NS1 protein function; S. cerevisiae slowed by influenza A NS1, growth recovery by OD600; Potency, µM (series often up to 46.1 µM), for the others: at the top dose activity, positive = more growth; 0.4% of 270,000 active; also: actives are rising curves; nearly all actives have a fitted effect of over 50% in size
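Compounds were scored for reversing the slow growth caused by influenza A NS1 in S. cerevisiae, measured by optical density at 600 nm. Assay medium contained 2% galactose at pH 6.0; NS1-free yeast of the same strain were the positive control.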
Lassa entry inh = inhibitors of Lassa virus binding or cell entry; Lassa virus pseudotype entry inhibition, cell reporter; control for the full effect not named in the record; Potency, µM (series often up to 37.9 µM), inactives show at the highest dose activity change, negative = inhibition, most hits filed as inhibitors; 1.2% of 300,000 active; active means well fitted inhibition curve with a large enough effect; inconclusive means small, poorly fitted or top-dose-only effect, or effect the other way; inactive means flat fitted curve, though single readings scatter; tested in HEK293 cells; also: % is scaled to controls: 0 for no effect and ±100 for the full control effect; nearly all actives have a fitted effect of over 50% in size; luciferase read-out
Active calls of the source: *; u = inconclusive; x = not tested or not shown; & = joins results of further samples; [ ] = another dose, or the depositor's remark. Unless noted, calls follow the shape of the dose curve; as a rule, active means well fitted rising curve with a large enough effect; inconclusive means small, poorly fitted or top-dose-only effect; inactive means no such curve, though single readings can be large or run the other way. Potency is read from the fitted curve at half-maximal effect.

SMILES	Marburg entry inh	StopGo reporter	Cruzain inh Det	SARS PLpro yeast	Cruzain inh noDet	RE007 growth inh	NS1 inh	Lassa entry inh
CCCCN(C(=O)CCCc1nc2ccccc2c(=O)[nH]1)c1c(N)n(CCCC)c(=O)[nH]c1=O	11%	-11%	x	-2%	x	25%	9%	15%
CCCCCNC(=O)CSC1=N/C(=C\c2ccc(Cl)c(Cl)c2)C(=O)N1CC	-1%	-11%	4.1%	11%	-11%	-3%	7%	3%
O=C(Cc1ccccc1)OCC(=O)N1CCN(S(=O)(=O)c2ccc(Cl)cc2)CC1	17%[46.1 µM]	-23%	x	x	x	2%	x	18%
COc1ccc(OCC#CCN2CCC(C)CC2)cc1	3%[46.1 µM]	-26%	x	1%	x	2%	-4%	0%
CSc1ccccc1NC(=O)N1CCC(CO)(CC2CCCCO2)CC1 (stereo not drawn)	2%[46.1 µM]	-1%	x	-1%	x	-8%	1%	4%
O=C(CN1C(=O)NC2(CCCc3ccccc32)C1=O)N1CCCCC1 (stereo not drawn)	-9%	-19%	x	0%	x	13%	x	0%
COc1ccc(N=CC2=C(O)c3ccccc3C2=O)cc1	u	-73%	-0.7%	-8%	-2%	16%	-3%	u
O=C(NNC(=O)C1CC(c2cccs2)=NO1)Nc1ccc(Cl)cc1 (stereo not drawn)	x	-5%	x	-1%	x	2%	-7%	x
Cc1ccc(S(=O)(=O)N2CCN(C(=O)CN3C(=O)NC4(CCOc5ccccc54)C3=O)CC2)cc1 (stereo not drawn)	-4%&2%	-16%	-0.1%	-6%	u	-1%	2%	8%
CN(C)CCn1c(C(=O)Nc2ccccc2)cc2ccccc21	u	-21%	-3.2%	-5%	3%	0%	-7%	-13%
CCCCC(=O)Nc1cccc(-c2nc3ncccc3o2)c1C	-1%	47%&12%[activator]	-2.7%	-2%	-5%	-4%	-4%	-1%
CC(=O)c1cccc(OCc2cc(C(=O)N3CCSCC3)no2)c1	12%	46%[activator]	x	u	x	1%	-16%	0%
CC1CCN(C(=O)CCCOc2ccc(Cl)cc2)CC1	2%	21%	-3.2%	-43%	12%	-14%	-26%	-23%
Cc1cc(C)nc(/N=C(/NC(=O)Nc2cccc(Cl)c2)Nc2ccccc2)n1	0%	x	-5.9%	3%	-28%	-1%	-5%	3%
Cc1c(Br)c([N+](=O)[O-])nn1CC(=O)N1CCc2ccccc2C1	-3%	-20%	-8.5%	-1%	10%	2%	6%	-2%
Cc1ccc(Cn2c(SCCN3CCOCC3)nc3c2c(=O)n(C)c(=O)n3C)cc1	-1%&-10%	x	-4.3%	2%	-3%	-9%	-37%	-19%
CC(NS(=O)(=O)/C=C/c1ccccc1)C(=O)O (stereo not drawn)	-3%[46.1 µM]	-17%	x	-1%	x	9%	x	-15%
Cc1noc(C)c1C(=O)N1CCCC(C(=O)c2cccc(OC(C)C)c2)C1 (stereo not drawn)	-8%[46.1 µM]	-4%	x	0%	x	u	1%	-13%[46.1 µM]
O=C(/C=C/c1ccccc1)c1ccccn1	17%	24%	5.5%	-8%	-16%	35µM*	-45%	-1%
O=C(CSc1ccc(F)cc1)Nc1ccccc1N1CCOCC1	x	-10%	x	-6%	x	5%	-10%	x
N#Cc1cc2c(nc1SCc1cccnc1)CCCC2	0%	0%	-4.6%	-14%	10%	-18%	-66%	10%
O=C(N/N=C/c1ccoc1)c1ccc(Cl)cc1	x	0%	x	2%	x	11%	-5%	x
CCOc1ccc(/C=N/NC(=S)NC2CC3CC2C2C=CCC32)cc1 (stereo not drawn)	4%[46.1 µM]	28%	x	-2%	x	-16%	7%	-8%
COc1ccc(N=C2SCC(c3ccc([N+](=O)[O-])cc3)=NN2CCO)cc1	-19%[46.1 µM]	-19%	x	-4%	x	14%	-5%	u
COc1cc(Cl)c(NC(=O)CN(C)S(=O)(=O)c2ccc3c(c2)CCCC(=O)N3)c(OC)c1	x	u	-2.8%	x	9%	x	x	-29%[46.1 µM]
CC(C)c1ccc(OCC(=O)N(Cc2ccc(N(C)C)cc2)C2CCS(=O)(=O)C2)cc1 (stereo not drawn)	3%[46.1 µM]	0%	-5.3%	x	u	x	x	-7%[46.1 µM]
O=C(COC(=O)c1ccc2ncsc2c1)Nc1ccccc1Cl	-24%	13%	x	-3%	x	-5%	x	-5%
CN(c1ccccc1)S(=O)(=O)c1cccc(NC(=O)c2cc3ccccc3oc2=O)c1	u	12%	x	1%	x	-23%	14%	22%
COCCN1CSC(=S)N(Cc2ccco2)C1	u	25%	3.4%	1%	-8%	-15%	-167%	-6%
Cc1cccc(-c2nc(CS(=O)CC(=O)NCCc3ccc(Cl)cc3)c(C)o2)c1 (stereo not drawn)	-27%[46.1 µM]	-13%	x	3%	x	-6%	3%	u
Cc1cc(C)c(C(=O)COC(=O)Cn2nc(-c3ccccc3)oc2=O)cc1C	1%	5%	x	1%	x	0%	x	24%
O=C(O)C1CCCN(S(=O)(=O)c2ccc(-c3ccc(=O)[nH]n3)s2)C1 (stereo not drawn)	u	-5%	x	4%	x	7%	-9%	23%[46.1 µM]
COc1ccc(S(=O)(=O)Oc2ccccc2C(N)=O)cc1	11%	1%	x	2%	x	7%	x	5%
CC(C)N(Cc1ccccc1)c1ncnc2c1nnn2C	x	-22%	-1.6%	x	6%	x	x	u
O=C(COC(=O)COc1ccccc1)Nc1ccc(Br)cc1Br	7%	-6%	x	-1%	x	-10%	x	40%
NC(=O)CSc1nnc(Cc2csc(Nc3ccccc3)n2)n1Cc1ccccc1	-20%	x	-2.2%	2%	u	-3%	-8%	-1%
COc1ccc(C(=O)OCCN2CCOCC2)cc1	22%	16%	1.7%	3%	-1%	-5%	12%	15%
O=C(c1ccc(Br)cc1)N(Cc1nc2ccccc2c(=O)[nH]1)C1CCCC1	u	0%	x	0%	x	17%	-12%	u
Cc1cccc(-c2nc(CS(=O)CC(=O)NC3CCCC(C)C3C)c(C)o2)c1 (stereo not drawn)	x	-10%	x	-2%	x	-4%	-17%	x
CC(=O)NC(Cc1ccccc1C)C(=O)NC1CCN(c2nnnn2-c2ccccc2)CC1 (stereo not drawn)	3%[46.1 µM]	-23%	x	2%	x	-6%	-4%	-7%
Cc1ccnc(SC2CC(=O)N(c3ccc(Br)cc3)C2=O)n1 (stereo not drawn)	x	-2%	x	-9%	x	36%	-6%	x
O=C(NCc1ccco1)c1cccc(NS(=O)(=O)c2cccc(F)c2)c1	u	-5%	0.9%	-4%	-6%	3%	4%	u
CC(=O)Nc1sc2c(c1C(c1ccncc1)N1CCOCC1)CCCC2 (stereo not drawn)	-4%[46.1 µM]	-15%	x	1%	x	-4%	x	-2%
COc1ccc(/C(C)=N/NC(=O)c2nnn(-c3nonc3N)c2-c2cccs2)cc1OC	4%[46.1 µM]	3%	x	-1%	x	-9%	2%	-9%[46.1 µM]
Cc1ccccc1SCC(=O)Nc1cc(C(F)(F)F)ccc1N1CCOCC1	-28%	u	x	-19%	x	13%	x	2%
CCc1ccccc1NC(=O)NC1CCCCC1	31%	30%[activator]	2.5%	u	u	-20%	5%	-6%
COc1ccc(C2=NOC(C(=O)Nc3cccc(O)c3)C2)cc1 (stereo not drawn)	-5%	11%	x	1%	x	20%	-2%	u
Cc1ccc(NC(=S)NCCc2c[nH]c3ccccc23)c(C)c1	x	14%	x	-5%	x	37%	-30%	x
COc1ccc(NC(=O)C2(S(=O)(=O)c3ccc(C)cc3)CC2)cc1OC	8%[46.1 µM]	-11%	x	1%	x	11%	3%	6%[46.1 µM]
CC12CCC(C(=O)Nc3ccccc3N3CCOCC3)(CC1=O)C2(C)C (stereo not drawn)	4%	-21%	5.4%	4%	8%	-9%	1%	-11%
Cc1ccc(C(=O)CCC(=O)Nc2ccccc2C)cc1C	x	7%	x	-4%	x	2%	-7%	x
CCn1c(=O)cc(SCC(=O)NCCN2CCN(Cc3ccccc3)CC2)c2ccccc21	u	15%	1.4%	7%	-1%	-9%	1%	u
O=C1CS/C(=N/N=C/c2c[nH]c3ccccc23)N1	0%[14.2 µM]	24%	x	-2%	x	-1%	-6%	5%
Cc1cccc(C(=O)NNC(=O)c2ccc(O)cc2)c1	6%	7%	x	-12%	x	4%	7%	2%
Cc1nn(-c2ccccc2)c2nc(C(Cl)(Cl)Cl)[nH]c(=O)c12	-2%[46.1 µM]	u	x	-1%	x	18%	-3%	-3%
CCc1ccc(N2CC(c3nnc(NC(=O)c4ccco4)s3)CC2=O)cc1 (stereo not drawn)	1%[46.1 µM]	-8%	-4.0%	x	0%	x	x	u
CCC1Sc2ccccc2N(CC(=O)NCCC(C)C)C1=O (stereo not drawn)	15%	33%[activator]	5.4%	3%	-2%	16%	-17%	21%
CCC(=O)N1CCN(c2ccc(NC(=O)c3ccc([N+](=O)[O-])o3)cc2)CC1	-37%[46.1 µM]	1%	x	-1%	x	-28%	-1%	u
O=C(O)c1cc(NCc2cccs2)ccc1N1CCOCC1	u	12%	-1.1%	-1%	3%	-5%	-6%	-11%
CC(C)c1nn2c(=O)cc(COC(=O)c3ccccc3NC(=O)c3cccs3)nc2s1	x	1%	-0.2%	x	-1%	x	x	10%[46.1 µM]
CCNc1nc(NCC)nc(Oc2ccc(N)cc2)n1	23%	-25%	1.3%	2%	2%	6%	12%	1%
COc1ccc(NC(=O)c2oc3ccccc3c2NC(=O)c2cc(=O)c3c(C)cc(C)cc3o2)cc1	-4%[46.1 µM]	-15%	-2.1%	x	-22%	x	x	2%[46.1 µM]

Profiles, quoted from the list. Order of screens: Marburg entry inh | StopGo reporter | Cruzain inh Det | SARS PLpro yeast | Cruzain inh noDet | RE007 growth inh | NS1 inh | Lassa entry inh
CCc1ccc(N2CC(c3nnc(NC(=O)c4ccco4)s3)CC2=O)cc1 (stereo not drawn) in the list: 1%[46.1 µM] | -8% | -4.0% | x | 0% | x | x | u
CSc1ccccc1NC(=O)N1CCC(CO)(CC2CCCCO2)CC1 (stereo not drawn) in the list: 2%[46.1 µM] | -1% | x | -1% | x | -8% | 1% | 4%
